E coli growth = E. coli growth inhibition. AID 1053175. OD600 absorbance (concentration not given with the values). Escherichia coli growth, OD600, 23 h; active compounds read low. 0.21% of 330,000 active;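 active = OD600 absorbance below the run mean of sample wells minus 3.6 SD, in any replicate, cut at about 0.56 in these data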;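 note: stock transfer was 300 nL into about 60 µL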
Ecoli rRNA inh = inhibits bacterial ribosomal RNA function over humanized ribosomes; E. coli WT GFP vs humanized-ribosome RFP mutants, fluorescence, 24 h; active compounds read low; DMSO median 0, no signal -100; GFP signal change (wild-type ribosome), % (no concentration beside the values); 1.6% of 350,000 active; AID 720706;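 active = significant combined selectivity score with lowered wild-type GFP, culture density cut under 30%, mutant RFP and density less affected; inactive = any of these conditions unmet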; note: one replicate is shown; some compounds called inactive have numbers as strong as hits
FGF22 binding = shifts melting point of recombinant human FGF22. AID 651658. 1.5% of 340,000 active. calls only at 9.99 µM. Q9HCT0. recombinant FGF22 thermal shift, SYPRO orange fluorescence; percent of sucrose octasulfate shift, DMSO zero;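 active = melting point raised past a set limit in the mean and every replicate; three in four hits are not shown here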
Target sequence (Q9HCT0 whole entry, looked up): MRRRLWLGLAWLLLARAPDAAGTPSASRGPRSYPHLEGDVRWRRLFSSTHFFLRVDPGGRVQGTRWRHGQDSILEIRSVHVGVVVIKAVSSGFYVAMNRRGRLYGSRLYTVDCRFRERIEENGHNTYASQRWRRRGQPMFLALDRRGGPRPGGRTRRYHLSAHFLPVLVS
T cruzi repl = T. cruzi replication inhibition | T. cruzi beta-gal in NIH3T3, luminescence, 90 h | inhibition, % (no concentration beside the values) | 1.4% of 300,000 active | AID 1885;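 active = mean inhibition across valid replicates above about 55%, limit read from the data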;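 note: signal also drops with host cell toxicity which is not excluded here; 0% = plate median of DMSO wells and 100% = zero luminescence signal; higher percent means less beta-gal luminescence so fewer parasites; stock transfer was 50 nL into about 50 µL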
A1 inh = inhibitors of the anti-apoptotic protein A1, read as caspase activation. AID 2462. MEF A1-2A-BIM cells, Caspase-Glo 3/7 luminescence, 3 h; percent of clofoctol response, vehicle zero. caspase activation, % (no concentration beside the values). 0.066% of 330,000 active;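 active = over half of replicate activation scores above 10%, or exactly half above 10 with the replicate mean above 10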;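 note: wells of about 30 µL received 50 nL stock; many hits fall short of the cut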
Beta cell apopt = beta cell apoptosis inhibition. protection from apoptosis, % (concentration not given with the values). 0.8% of 300,000 active. INS-1E cytokine-induced death, ATP luminescence, 48 h; percent of positive-control rescue, neutral wells zero;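 active = all replicates at 75% or more, or half of them and the mean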;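 note: 0% = cytokine-treated negative control wells and 100% = positive control rescue; higher means more ATP so stronger rescue from cytokine killing; wells of about 40 µL received 100 nL stock; the first replicate is given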
UCH37 DUB inh = blocks the human deubiquitinase UCH37. Q9Y5K5. 0.33% of 330,000 active. inhibition, % (concentration not given with the values). purified proteasome/UCH37, Ub-AMC cleavage fluorescence. AID 588478;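 active = mean of two replicates above 20%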;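 note: 0% = compound-free wells with enzyme and 100% = wells lacking proteasome; stock transfer was 100 nL into about 20 µL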
Target sequence (Q9Y5K5 whole entry, looked up): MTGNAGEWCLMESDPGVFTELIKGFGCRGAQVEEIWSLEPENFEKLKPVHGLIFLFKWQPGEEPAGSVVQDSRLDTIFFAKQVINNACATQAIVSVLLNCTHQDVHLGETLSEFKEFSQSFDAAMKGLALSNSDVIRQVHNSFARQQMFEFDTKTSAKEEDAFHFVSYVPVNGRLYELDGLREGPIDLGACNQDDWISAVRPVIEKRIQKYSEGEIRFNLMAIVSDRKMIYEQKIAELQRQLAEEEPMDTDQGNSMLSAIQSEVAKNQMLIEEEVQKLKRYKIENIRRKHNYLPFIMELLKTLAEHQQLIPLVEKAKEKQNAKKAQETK
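Material: Human UCH37 enzyme supplied as purified proteasome complex | Schedule: 30 min preincubation with enzyme, 25 min cleavage at room temperature | Detection: AMC fluorescence 355/460 nm | Measure: % inhibition of Ub-AMC cleavage fluorescence | Controls: Wells without proteasome as full block, compound-free enzyme plus substrate as uninhibited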
MLL AF4-AF9 inh = inhibitors of human MLL-AF4/AF9 interaction; P42568; AlphaScreen, biotin-AF4 peptide binding to FLAG-AF9; inhibition, % at 10 µM; 0.47% of 350,000 active; AID 651704;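 active = every replicate reaching a set inhibition limit, whatever the replicate mean, cut at about 25% in these data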;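 note: 0% = plate neutral control median and 100% = total signal loss; the record names both 10 and 1 µM as test concentration; the first replicate is given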
Target sequence (P42568 whole entry, looked up): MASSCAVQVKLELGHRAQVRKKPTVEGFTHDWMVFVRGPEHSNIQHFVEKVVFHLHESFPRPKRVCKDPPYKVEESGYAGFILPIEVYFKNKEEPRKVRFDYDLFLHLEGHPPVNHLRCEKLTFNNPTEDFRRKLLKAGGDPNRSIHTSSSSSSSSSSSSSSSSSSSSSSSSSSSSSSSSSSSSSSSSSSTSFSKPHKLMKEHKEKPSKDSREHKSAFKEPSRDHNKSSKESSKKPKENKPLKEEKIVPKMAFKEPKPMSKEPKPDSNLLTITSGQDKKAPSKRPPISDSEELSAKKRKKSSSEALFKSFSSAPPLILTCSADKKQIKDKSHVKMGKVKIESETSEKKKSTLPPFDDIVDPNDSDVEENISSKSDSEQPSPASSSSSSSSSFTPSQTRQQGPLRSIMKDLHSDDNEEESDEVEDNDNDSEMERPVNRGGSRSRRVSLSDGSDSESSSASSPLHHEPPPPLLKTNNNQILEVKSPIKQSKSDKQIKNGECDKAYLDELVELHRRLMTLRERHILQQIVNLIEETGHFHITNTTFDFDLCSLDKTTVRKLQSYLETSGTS
Ecoli rRNA inh OD600 = recorded beside Ecoli rRNA inh, whose call it bears; OD600 change, %; measured here: OD600 growth;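 optical density of the mix in the first replicate; 0 = DMSO median and -100 = no signal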
Ecoli rRNA inh RFP = also measured in Ecoli rRNA inh; calls as there; RFP signal change, %; measured here: RFP humanized mutant strains;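 first replicate; 0 = DMSO median and -100 = no signal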
An asterisk follows results filed as active; i = inactive; x = not tested or not shown; & = joins results of further samples.

SMILES	E coli growth	Ecoli rRNA inh	Ecoli rRNA inh OD600	Ecoli rRNA inh RFP	FGF22 binding	T cruzi repl	A1 inh	Beta cell apopt	UCH37 DUB inh	MLL AF4-AF9 inh
CN(Cc1ccc2nonc2c1)Cc1nc(Cc2cccc(F)c2)no1	0.67	4	1	6.1	i	5	0.5	-20	2.7	2.2
O=C(CSc1cn(CCNC(=O)c2ccccc2)c2ccccc12)NCC1CCCO1 (centres undefined)	0.69	0	-2	0.6	i	2	-0.1	0	4.6	0.3
C=CCn1c(Cc2ccc(OC)cc2)nnc1SCC(=O)NCCc1ccccc1	0.76	x	x	x	x	1	0.0	-5	3.4	x
O=C(O)C1CCN(C(=O)CSc2nc3cc(Cl)ccc3c(=O)n2Cc2ccccc2)CC1	0.68	-12	-13	-2.0	i	37	0.4	-13	1.0	1.3
CCn1nc(C)cc1C(=O)N1CCCC(C(=O)c2ccc(OC)cc2C)C1 (centres undefined)	0.7	-4	-4	2.6	i	-11	-0.8	-6	1.5	-0.8
Cc1cc(C(=O)NCCN2CCOCC2)c2ccccc2n1	x	x	x	x	i	x	0.5	1	x	0.5
Cc1cc(C)cc(N(CC(=O)NCC2CCCO2)S(=O)(=O)c2c(C)noc2C)c1 (centres undefined)	0.75	-3	-2	0.5	i	-10	-1.8	x	2.3	6.3
CC(C)C(=O)Nc1ncc(Cc2ccc(Cl)cc2)s1	0.69	-28*	-17*	-1.5*	i	3	0.1	-3	4.9	0.8
CNC(=O)c1ccc(NC(=O)c2cccc(C(F)(F)F)c2)cc1	0.67	16	11	2.7	i	-9	1.2	0	2.4	-12
CN1C(=O)C(CC(=O)Nc2ccccc2)S/C1=N/c1nccs1 (centres undefined)	x	-3	2	-2.6	i	-23	-0.5	0	x	1.9
N#CCC(=O)Nc1ccc(C(=O)OCC(=O)c2c[nH]c3ccccc23)cc1	0.7	3	-22	22	i	x	2.4	-1	4.7	-2.5
CN(C(=O)COc1ccc(C(C)(C)C)cc1)C1CCS(=O)(=O)C1 (centres undefined)	0.73	10	2	1.5	i	-6	0.2	-11	4.0	2.5
COc1ccc(C[C@@H]2CN3C(=NC[C@@H]3Cc3ccc(O)cc3)N2C[C@H](C)NC(=O)CCC2CCCCC2)cc1	x	x	x	x	x	-3	0.6	1	0.4	x
CC/C(=C(\c1ccc(O)cc1)c1ccc(OCCN(C)C)cc1)c1ccccc1	x	-55	-77	-8.9	i	32	0.5	14	1.8	20&17
Cc1nnc2ccc(N3CCN(c4cccc(C(F)(F)F)c4)CC3)nn12	0.7	-2	-7	-0.3	i	14	-0.3	6	5.2	51*
O=C(O)c1ccccc1-c1ccccc1C(=O)NCCc1ccccc1	0.68	8	3	2.5	i	-1	0.1	2	3.7	-7.5
Cn1c(SCC(=O)c2ccccc2)nnc1-c1cnccn1	0.67	x	x	x	x	-2	0.8	-3	1.7	x
CCCCc1ccc(NC(=S)NCC2CCCO2)cc1 (centres undefined)	0.66	-8	-13	-5.2	x	12	0.1	-2	0.1	3.2
Cn1c(CN2CCCC2)nc2cc(NC(=O)COc3ccccc3)ccc21	0.71	x	x	x	x	-15	0.3	-1	0.3	x
O=C1OC(c2cccc([N+](=O)[O-])c2)C2(CCCC2)C(=O)C12CCCCC2 (centres undefined)	0.69	x	x	x	x	-5	-0.6	4	3.5	x
Cc1cccc(C(=O)N2CCc3ccccc3C2)c1[N+](=O)[O-]	0.68	4	8	5.3	i	-9	-0.9	-5	2.1	-1.8
Cc1ccc(CCN2CC(C(=O)NCCCN(C)Cc3ccccc3)CC2=O)cc1 (centres undefined)	0.73	x	x	x	x	63*	0.4	-9	-0.2	x
CC1(C)CC(=O)C2=C(C1)NC(=O)CC2c1ccccc1F (centres undefined)	0.71	x	x	x	x	-12	1.6	-5	0.8	x
CSCCC(NS(=O)(=O)c1ccccc1F)C(=O)Nc1ccncc1 (centres undefined)	0.67	14	9	-0.6	i	x	-0.5	2	2.9	1.5
C=CC[C@H](CC(=O)NCCO)C(=O)N[C@H](COC(=O)[C@@H](CC=C)CC(=O)OC(C)(C)C)Cc1c[nH]c2ccccc12	x	-6	-15	25	i	x	2.0	-1	-0.3	2.9
COc1ccc(CCn2c(=N)c(C(=O)NCc3ccco3)cc3c(=O)n4ccccc4nc32)cc1	0.66	x	x	x	x	46	-0.6	x	-15	x
COc1ccc(N(CN2C(=O)c3ccccc3C2=O)C(=O)COc2ccc(Cl)cc2Cl)cc1	0.71	7	-2	2.7	i	-8	1.0	5	0.6	3.7
Cc1ccc(/C=N/NC(=O)Cn2cnc3ccccc32)cc1	x	-20	-20	0.0	i	-16	-0.1	5	x	-1.2
Cc1ccc(-c2nn(-c3ccccc3)cc2C(=O)NCCCN2CCCC2=O)cc1	x	-6	-2	-0.2	i	-3	-0.5	-4	x	11
COc1ccc(/C=C/c2nnc(NC(=O)COc3ccccc3)s2)cc1	0.69	-3	-3	-4.9	i	7	0.3	-1	-136	0.4
Cc1nn(Cc2c(Cl)cccc2Cl)c(C)c1NC(=O)CCCn1nc(C)c([N+](=O)[O-])c1C	0.65	x	x	x	x	0	1.1	3	0.3	x
CCCCC(=NCCO)C1=C(O)C(C(=O)OC)C(C)(C)CC1=O (centres undefined)	0.68	x	x	x	x	-23	0.8	2	1.2	x
Cc1ccc(C)c(NC(=O)C2C3C=CC(O3)C2C(=O)O)c1 (centres undefined)	0.66	0	1	-2.6	i	12	0.1	x	1.2	-13
CN(C)c1nc(N(C)C)nc(N2CCCCC2)n1	0.75	x	x	x	x	-11	0.1	-3	-0.4	x
Cc1cc(SCC(=O)N2CCC(c3noc4ccc(F)cc34)CC2)nc2ccccc12	0.72	x	x	x	x	5	-0.8	-8	6.2	x
O=C(c1ccc(Br)cc1)c1cc([N+](=O)[O-])ccc1N1CCCCC1	0.71	x	x	x	x	40	1.5	54	2.3	x
O=C(NNC(=S)Nc1ccccc1C(F)(F)F)c1cccnc1	0.66	4	7	-0.7	i	-3	-0.3	-2	2.2	-0.4
Cc1cccc(-c2nc(CN3CCCC(C(=O)NC4CCCCCC4)C3)c(C)o2)c1 (centres undefined)	0.68	x	x	x	x	51	-0.9	12	1.7	x
COc1ccc(/C(C)=C2/SC(=S)N(CCC(=O)O)C2=O)cc1	0.7	x	x	x	x	2	-0.5	3	9.0	x
O=C(O)c1cccc(Nc2nc(-c3cc4ccccc4oc3=O)cs2)c1	0.67	3	-4	10	i	-1	-3.8	x	-9.9	-5.9
Cc1nc2sc(C(=O)Nc3ccccc3Cc3ccccc3)c(C)c2c(=O)[nH]1	0.69	5	8	6.1	i	5	0.3	9	0.0	-26
CN(C)C(CNC(=O)c1ccc(C(F)(F)F)cc1)c1ccco1 (centres undefined)	0.66	0	8	-3.0	i	12	-0.8	-6	-2.8	2.1
CC(C)[C@H](N)c1nnc(SCc2ccc(Cl)cc2)o1	0.7	x	x	x	x	0	-0.7	-6	2.5	x
CC(C)C[C@H](NC(=O)CCCn1nnc2ccccc2c1=O)C(=O)O	0.69	10	11	-1.4	i	-2	0.2	-3	0.2	3.0
Cc1ccc(NC(=O)Nc2nnc(-c3ccccc3F)s2)cc1	0.68	11	2	-1.5	i	16	-1.4	-6	4.3	x

In another format: entries from further up.
SMILES | E coli growth | Ecoli rRNA inh | Ecoli rRNA inh OD600 | Ecoli rRNA inh RFP | FGF22 binding | T cruzi repl | A1 inh | Beta cell apopt | UCH37 DUB inh | MLL AF4-AF9 inh
CN(C)c1nc(N(C)C)nc(N2CCCCC2)n1 | 0.75 | x | x | x | x | -11 | 0.1 | -3 | -0.4 | x
Cc1cc(SCC(=O)N2CCC(c3noc4ccc(F)cc34)CC2)nc2ccccc12 | 0.72 | x | x | x | x | 5 | -0.8 | -8 | 6.2 | x
O=C(c1ccc(Br)cc1)c1cc([N+](=O)[O-])ccc1N1CCCCC1 | 0.71 | x | x | x | x | 40 | 1.5 | 54 | 2.3 | x

Following part:
SMILES	E coli growth	Ecoli rRNA inh	Ecoli rRNA inh OD600	Ecoli rRNA inh RFP	FGF22 binding	T cruzi repl	A1 inh	Beta cell apopt	UCH37 DUB inh	MLL AF4-AF9 inh
COc1ccccc1NC(=O)N(C1CCCC1)C1CCN(C(C)=O)CC1	0.75	9	14	-1.0	i	-3	-0.7	-2	6.2	-2.8
Cc1cc(C)n(CC(=O)c2ccccc2)c(=O)c1C#N	0.68	x	x	x	x	5	2.4	-5	3.0	x
Cc1cccc2nc(-c3cccnc3)c(Nc3ccccc3)n12	0.67	-36*	-4.2*	7.8*	i	8	-0.9	-5	4.7	3.6
CCCOc1ccc(C(F)(F)F)cc1NC(=O)c1cc(C)on1	0.69	8	14	-1.3	i	x	-0.5	5	1.0	0.6
CCOC(=O)N1CCC(NC(=O)CCCC(=O)O)CC1	0.71	13	20	5.5	i	9	0.5	5	-3.3	1.4
Cc1noc(C)c1CN1C(=O)c2cccc([N+](=O)[O-])c2C1=O	0.64	6	9	-0.6	i	-6	0.4	-1	3.3	0.7
Cc1cccc(C(=O)Nc2cccc(C(=O)Nc3cc(C)ccn3)c2)c1	0.66	x	x	x	x	5	-1.4	1	-1.0	x
CCOC(=O)c1ccc(NC(=O)CSc2nnnn2CCCO)cc1	0.7	x	x	x	x	13	0.4	1	5.2	x
Cc1oc(-c2ccccc2F)nc1CN1CCC(C(=O)NC2CC2)CC1	0.74	x	x	x	x	-1	0.7	-1	-2.2	x
Cc1ccc(S(=O)(=O)N2CCOCCOCCOCCOCCOCC2)cc1	0.72	-3	4	-2.8	i	-11	1.2	-1	4.8	-0.8
OCCNc1nc(-c2ccccc2)c2cc(Br)ccc2n1	x	-6	-13	1.0	i	4	-1.8	9	x	0.0
COc1ccc(NC(=O)CN(C)C(=O)c2ccc(COc3ccccc3)o2)cc1	0.63	-3	2	-1.3	x	-2	0.1	6	-0.1	-12
Cc1cc(C(=O)N2CCCC2)n[nH]1	0.7	6	1	-0.9	i	-3	x	x	3.6	-0.5
COc1cc(OC)c(C(=O)NNC(=O)c2ccccc2-n2cccc2)cc1OC	0.7	6	1	1.5	i	x	0.9	0	0.1	0.9
CC1CCCN(C(=O)CCCn2c(=S)[nH]c3ccccc3c2=O)C1 (centres undefined)	0.71	x	x	x	x	4	1.4	-4	6.1	x
COc1cc(C(=O)ON=C2C=C(C)C(=O)C(C)=C2)cc(OC)c1OC	0.74	23	8	-2.9	i	-12	0.1	0	9.6	4.0
O=C(C[n+]1cc(Br)cc(Br)c1)c1cccc([N+](=O)[O-])c1	0.67	-5	1	-0.8	i	4	0.8	7	5.8	-0.8
COc1ccc(NC(=S)NCc2cccs2)cc1	0.67	13	10	5.8	x	-14	0.2	-2	2.0	-0.8
O=C1[C@H](Cc2ccccc2)NCC=CC[C@@H](c2ccc(Cl)cc2)N1Cc1ccccc1	x	-48	-75	-15	i	x	x	x	0.3	4.6
CCCn1c(=O)n(C)c(=O)c2c(SCC(=O)Nc3cc(C)on3)nc(C(C)(C)C)nc21	0.69	3	7	-3.2	i	x	-0.1	1	0.9	-8.7
COc1ccc(CN2CC[C@@H](N3CCOCC3)[C@H](O)C2)cc1F	0.68	22	9	3.4	i	-5	0.1	-2	1.7	-1.5
COc1ccc([C@H]2CC(=O)C=C(c3ccc(C)c4ccccc34)C2)cc1	0.76	1	9	0.2	i	x	0.6	-5	1.9	7.5

Screens deposited in PubChem BioAssay by several laboratories.

The list is partial; the hit share may differ from the screen's.
